# Source: PubChem BioAssay
# BJeLR viability: kills HRASV12-expressing BJeLR cells. 300,000 tested, 0.17% active. inhibition, % (no concentration beside the values). AID 1554. BJeLR (HRASV12) viability, CellTiter-Glo ATP luminescence, 48 h; reference of the scale not given here;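 active = replicate mean above 50%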;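 also: 50 nL library stock added to about 25 µL; numbers are from one replicate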
# RN4220 kill: S. aureus RN4220 growth inhibition; OD600, 16 h; inhibition, % (test concentration not listed); 330,000 tested, 0.33% active; AID 1259311;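 active = z-score of -3 or lower and OD600 up to 0.18 on both plates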;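 also: plate controls were untreated cells for no effect and reference antibiotic for full effect; stock transfer was 100 nL into about 80 µL; one replicate is shown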
# Mtb hypoxia inh: reduces hypoxia-regulated biosensor signal in M. tuberculosis; M. tuberculosis hypoxia-regulated fluorescent reporter, fluorescence; 300,000 tested, 0.1% active; fluorescence inhibition, % (concentration not given with the values);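 active = 35 to 45% if threefold the growth effect, above 45% if 1.5-fold the growth effect; inactive = the rest, general growth blockers included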;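 also: wells of about 50 µL received 100 nL stock; 0% = vehicle wells and 100% = reference inhibitor wells; whole bacteria with a GFP reporter of the hypoxia response; strong numbers were not always called active; many hits fall short of the cut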
# Autofluor counter: compound fluorescence in toxin protease inhibitor counterscreen | compound autofluorescence counterscreen, microsphere flow cytometry; active compounds read high | fluorescence intensity (concentration not given with the values) | 360,000 tested, 3.1% active;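 active = at least 3 SD above the mean of all compounds, about 16000 in these data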;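 also: 100 nL of 1 mM stock went into each well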
# PrP UTR inh: suppresses PrP 5' UTR mRNA reporter expression | cell-based PrP 5' UTR mRNA reporter, plate reader | inhibition, % (test concentration not listed) | 340,000 tested, 0.35% active | AID 488862;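 active = every replicate at 50% or more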;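 also: 0 = median of the neutral control wells; tested in H4 reporter cells; numbers are from one replicate; inactives centre near -14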
# ugtP null kill: compounds lethal to S. aureus RN4220 ugtP deletion mutant. OD600 growth, 16 h; some inactives read as strong as hits. growth inhibition, % (no concentration beside the values). 330,000 tested, 0.54% active. AID 1259309;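 active = z-score under -3 and OD600 up to 0.15 on both plates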;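 also: plate controls were untreated wells for no effect and antibiotic for full effect; wells of about 80 µL received 100 nL stock; the first replicate is given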
# Mtb hypoxia inh growth: also measured in Mtb hypoxia inh; calls as there; growth inhibition, %; measured here: M. tuberculosis growth (absorbance);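 0% = vehicle and 100% = reference antibiotic; read after six days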
# * marks the source's active call; other numbers are inactive results; nt = no result given; & = joins results of further samples. Not a hit list; about 4% have a hit in one of these screens.
SMILES,BJeLR viability,RN4220 kill,Mtb hypoxia inh,Mtb hypoxia inh growth,Autofluor counter,PrP UTR inh,ugtP null kill
O=S(=O)(NCCCCCNS(=O)(=O)c1ccccc1)c1ccccc1,7,-2.4,nt,nt,3678,-9&-17,-2
O=C(NCC(F)(F)F)Nc1nnc(C(F)(F)F)s1,-4,5.0,8,9,2519,-11,6
C[C@H](CO)N1C[C@H](C)[C@@H](CN(C)C)Oc2c(NC(=O)CCC(F)(F)F)cccc2C1=O,nt,-13,0,9,3738,-5,-7
CC1CN1P(=O)(Oc1ccccc1)N1CC1C (stereo unspecified),nt,0.8,-1,3,3245,-7,-2
O=C(NCCCCNC(=O)c1c(Cl)cccc1Cl)c1c(Cl)cccc1Cl,-2,4.0,17,1,nt,nt,11
CCc1ccc(/C=C/c2c[nH]c3ccccc23)[n+](CC)c1,-5,6.8,5,4,2869,-54,9
Cc1cc(C(C)(C)C)cc(S(=O)(=O)NCCc2ccncc2)c1C,6,11,10,-7,3070,-28,2
CCCn1c(SCC(=O)N2CCCCC2)nnc1-c1ccco1,-4,1.2,11,1,nt,0,-2
CC(=O)Nc1ccc(NC(=O)C(C)OC(=O)CNC(=O)c2ccc(-c3ccccc3)cc2)cc1 (stereo unspecified),5,-1.3,7,3,7296,-30,-4
Nc1nc(Cl)cc(N2CCCC2)n1,5,1.1,10,9,4619,13,5
CN(CCCNC(=O)c1cc2c(Cl)nc3ccccc3c2s1)Cc1ccccc1,3,2.7,-12,13,3505,-20,8
COc1ccc(N(Cc2cc(=O)[nH]c3ccccc23)C(=O)C(C)C)cc1,-3,6.2,3,-4,2938,-9,4
COc1ccc(NC(=O)COc2cc(C)cc(C)c2)cc1S(=O)(=O)N1CCCCC1,8,-1.9,2,12,8284,-26,-9
CC(=O)c1ccc(S(=O)(=O)N(C)CC(=O)Nc2cccc(S(=O)(=O)N3CCCC3)c2)cc1,nt,1.4,-7,-12,3003,-24,-3
COc1ccccc1CN1C(=S)SC(C)(C)C1NO (stereo unspecified),-5,3.4,2,5,3656,-6,0
CC(=O)CC(CC(=O)NC1CCCCC1)c1ccccc1 (stereo unspecified),-1,2.5,1,11,5977,-10,4
Cc1cccc(NC(=S)NN=CC(C)c2ccccc2)c1C (stereo unspecified),nt,0.9,-5,-5,nt,nt,-10
C/C(=N\O)C(=O)NCc1ccncc1,-4,nt,nt,nt,4637,-16,nt
N#Cc1nc(COc2ccc(Cl)cc2)oc1N1CCCC1,8,4.4,nt,nt,4739,-18,5
Cc1cccc(NC(=O)/C(=C\c2ccco2)NC(=O)c2ccccc2)c1,-5,6.4,16,6,5439,-29,-10
Cc1ccccc1COc1ccc(/C=C(\C#N)C(N)=O)cc1,-15,-2.3,-6,6,4433,-17,-8
COc1ccccc1/C=C/C1(C(=O)NC2CCCC2)CC(=O)N1c1ccc(F)cc1 (stereo unspecified),1,-1.4,5,2,3759,-28,-8
CN1C(=O)CSC1=NCC12CC3CC(CC(C3)C1)C2,-5,12,10,1,9016,12,31
Cc1ccccc1N(CC(=O)N1CCCCCC1)S(C)(=O)=O,-3,2.2,1,3,4460,-22,1
COc1ccc(Br)cc1/C=N/NC(=O)c1ccc2nc[nH]c2c1,-3,nt,nt,nt,4300,7,nt
Cc1nn(CC(=O)NCCc2ccco2)c(=O)c2nn(-c3ccccc3)c(C)c12,5,3.0,-1,-11,5636,1,2
CC(=O)CCC1CC(c2ccc(Cl)cc2)=NO1 (stereo unspecified),-6,7.5,23,17,2865,-25,-1
CC(=O)N1CCN=C1SCc1cccc(Cl)c1,3,-0.1,-3,-1,5244,6,-2
COCCN(Cc1ccccc1)C(=O)Cc1ccc(OC)c(S(=O)(=O)N2CCOCC2)c1,2,-0.9,11,7,4956,5,3
O=C1C=C(NCc2ccccc2)CCC1,3,2.2,5,-3,11004,-15,9
CCC(C(=O)Nc1ncccn1)(C(F)(F)F)C(F)(F)F,13,-3.1,7,0,3151,-2,2
CC(C)OCCCNC(=O)c1cc(S(=O)(=O)N2CCc3ccccc32)cn1C,9,3.0,-1,-5,5324,-32,-1
CC(=O)N(C)C1(c2nnnn2CCOC(=O)Nc2ccc(Cl)cc2)CCCCC1,2,2.3,2,9,2839,-29,1
O=c1[nH]c2cc3c(cc2cc1CN(Cc1ccccc1)Cc1nnnn1Cc1ccco1)OCCO3,4,-8.7,-2,15,3616,-5,-8
O=C(COC(=O)/C=C/c1ccc(F)cc1)Nc1ccccc1-c1ccccc1,-5,1.7,11,1,2713,-8,6
CC1CC(C)CN(C(=O)CSCC(=O)O)C1 (stereo unspecified),16,1.6,15,10,3442,-3,2
COc1ccc(Cl)cc1C(=O)NCc1ccc2c(c1)OCO2,-14,12,4,1,nt,-8,8
NS(=O)(=O)c1cccc(NC(=O)COC(=O)Cn2cc(C(F)(F)F)ccc2=O)c1,nt,5.5,11,10,7927,-8,6
CCC(=O)NC(c1ccc(OC)cc1)c1cc(Cl)c2cccnc2c1O (stereo unspecified),8,21,9,-1,4468,35,-13
COCCCNC(=O)c1ccccc1Sc1ccc(NC(C)=O)nc1,-8,4.1,5,-7,4399,-6,10
Clc1ccc(-c2nc(N3CCCCC3)nc3ccccc23)cc1,8,-5.7,nt,nt,10695,-10,45
Cc1cc(/C=C2/NC(=O)N(Cc3ccccc3F)C2=O)c(C)n1-c1ccccn1,5,nt,nt,nt,2793,2,nt
CCOC(=O)c1ccc(S(=O)(=O)N(CCO)Cc2cc3cc(OC)c(OC)cc3[nH]c2=O)cc1,1,2.2,17,5,4385,-4,3
Cc1c(C=NNC(=O)c2ccc(Br)cc2)c2ccccn2c1C(=O)c1ccncc1,nt,5.0,-17,-2,nt,-18,0
CC(NC(=O)CCNS(=O)(=O)c1ccc2c(c1)oc(=O)n2C)c1ccccc1 (stereo unspecified),6,4.2,15,7,5126,-15,4
Cn1c(Sc2ccc(Br)cc2)c(C=O)c2ccccc21,7,-6.7,9,13,2479,3,22
O=C(Oc1ccccc1C(=O)N1CCOCC1)c1ccc(Br)cc1,-5,5.6,2,5,20205*,0,-3
COc1ccc(OC)c2[nH]c(=O)c(CCNC(=O)c3ccc(S(=O)(=O)N(C)C)cc3)cc12,-2,0.7,nt,nt,2214,57,-5

# A few values from the list:
# In BJeLR viability, Cc1cc(/C=C2/NC(=O)N(Cc3ccccc3F)C2=O)c(C)n1-c1ccccn1 has the entry 5
# In PrP UTR inh, Cc1c(C=NNC(=O)c2ccc(Br)cc2)c2ccccn2c1C(=O)c1ccncc1 has the entry -18
# In BJeLR viability, COc1ccc(OC)c2[nH]c(=O)c(CCNC(=O)c3ccc(S(=O)(=O)N(C)C)cc3)cc12 has the entry -2
# In PrP UTR inh, O=C(Oc1ccccc1C(=O)N1CCOCC1)c1ccc(Br)cc1 has the entry 0
# In RN4220 kill, CCOC(=O)c1ccc(S(=O)(=O)N(CCO)Cc2cc3cc(OC)c(OC)cc3[nH]c2=O)cc1 has the entry 2.2

# Given with two lines to a compound: part of the list above.
# Order of values: BJeLR viability | RN4220 kill | Mtb hypoxia inh | Mtb hypoxia inh growth | Autofluor counter | PrP UTR inh | ugtP null kill
COc1ccc(OC)c2[nH]c(=O)c(CCNC(=O)c3ccc(S(=O)(=O)N(C)C)cc3)cc12
    -2 | 0.7 | nt | nt | 2214 | 57 | -5
Cc1cc(/C=C2/NC(=O)N(Cc3ccccc3F)C2=O)c(C)n1-c1ccccn1
    5 | nt | nt | nt | 2793 | 2 | nt
O=C(Oc1ccccc1C(=O)N1CCOCC1)c1ccc(Br)cc1
    -5 | 5.6 | 2 | 5 | 20205* | 0 | -3

# Going on with the list.
SMILES,BJeLR viability,RN4220 kill,Mtb hypoxia inh,Mtb hypoxia inh growth,Autofluor counter,PrP UTR inh,ugtP null kill
Cc1nc2ccccc2c(=O)n1/N=C/c1ccccc1F,-3,nt,nt,nt,3493,-30,nt
c1ccc(-n2c(Cc3cn4ccsc4n3)nnc2N2CCOCC2)cc1,3,5.5,16,7,10917,-15,12
CCCCN1C(=O)C(=O)N(CC(=O)Nc2sc(C)c(CC)c2C(=O)OCC)C1=O,-19,4.3,-1,9,5409,-12,1
O=C(Nc1cc(N2CCOCC2)ncn1)NC1(C(F)(F)F)Oc2ccccc2O1,-1,1.9,1,3,9153,-4,-2
CCSc1nnc(NC(=O)CSc2nc3c(c(=O)n2-c2ccccc2)SCC3)s1,-1,1.6,4,-1,10026,-16,1
Cc1ccc(N2CCN(C(=O)CNS(=O)(=O)c3ccc(Br)s3)CC2C)cc1 (stereo unspecified),-11,3.0,nt,nt,2267,-12,3
CC1(C)Cc2ccccc2-c2nnc(-c3ccccc3)n21,2,4.3,14,8,22143*,9,-8
COc1cc(C2C(C#N)=C(N)OC3=C2C(=O)CC(C)(C)C3)c([N+](=O)[O-])cc1OC (stereo unspecified),0,5.2,6,10,8679,-18,-7
Cc1ccc(S(=O)(=O)N=C(c2ccccc2)N2CCOCC2)c(C)c1,nt,3.7,-8,-7,nt,nt,10
COc1ccc(C=NN(c2ccccc2)c2ccccc2)cc1O,nt,-12,5,-7,nt,nt,42
COc1ccc(CNC(=O)C(=O)NCC2CCCN2S(=O)(=O)c2ccccc2)cc1 (stereo unspecified),-8,-1.9,5,13,nt,-11,4
CCc1ccc(N=C2NC(=O)/C(=C/c3ccc(OCC(=O)O)c(OC)c3)S2)cc1,-9,2.7,9,5,3097,-19,-8
COc1ccc(C(=O)Nn2cnc3ccccc3c2=O)cc1[N+](=O)[O-],-6,0.7,15,-5,2932,-21,9
CCCCCC(=O)N1CC2(CC(c3cccc(NC(=O)CC(c4ccccc4)c4ccccc4)c3)=NO2)CC1C(N)=O (stereo unspecified),nt,-7.0,7,8,nt,nt,-5
C=COCCn1c(-c2nonc2N)nc2ccccc21,3,7.2,nt,nt,4210,-10,4
O=C(COc1ncnc2sccc12)N1CCN(c2ccccc2)CC1,-2,1.8,-9,3,3807,4,2
CN(CC1COc2ccccc2O1)C(=S)Nc1ccccc1F (stereo unspecified),-3,1.3,3,2,2571,-17,1
CCC(NC(=O)Cc1c(C)c2cc3c(cc2oc1=O)OC(C)(C)CC3)C(=O)O (stereo unspecified),5,2.5,17,-1,3889,-22,7
O=c1c2cnn(-c3ccccc3)c2nc(-c2ccco2)n1-c1ccccc1,nt,2.9,7,16,22323*,-27,1
O=C(CSS(=O)(=O)O)N1CCN(C(=O)c2ccoc2)CC1,-2,3.0,-9,-3,4261,-4,7
Brc1ccc(-c2cn3nc4c(nc3n2)CCCC4)cc1,5,2.4,nt,nt,2922,41,13
COc1ccc(C(=O)O)cc1NC(=S)NC(=O)C(c1ccccc1)c1ccccc1,-2,3.6,-7,6,5653,4,-9
COCCn1c(C(C)C)nc2oc3ccccc3c(=O)c2c1=O,4,-0.9,-7,-1,3948,5,-3
Cc1ccc2nc(NC(=O)C3CCN(S(=O)(=O)c4cccc5nsnc45)CC3)sc2c1,-13,-4.5,-5,4,2084,-11,-14
Cc1cc(C)n2nc(C(=O)OCC(=O)N(C)Cc3ccccc3)nc2n1,-2,0.5,5,5,nt,-19,10
CCOC(=O)c1sc2nc(CSc3ccccc3)nc(NCCN(C)C)c2c1C,-20,11,nt,nt,5090,-10,-5
N#Cc1nc(Cc2ccccc2)oc1NCCc1ccccc1,-5,-14,4,7,3300,-72,-4
N#Cc1cnc2nc(SCc3ccccc3)nn2c1,17,4.1,-1,5,3882,nt,0
CN1CCN(C(=O)CSc2nc(-c3ccncc3)ccc2C#N)CC1,-4,1.8,nt,nt,2763,-10,-3
C=CCc1cc(Cl)ccc1OCCOCCNCCOC,-8,2.6,11,2,2046,-15,3
Cn1c(=O)c2c(nc(N3CCOCC3)n2CCCNC2=NCCC2)n(C)c1=O,-12,4.4,nt,nt,4590,-18,-12
CCOc1ccc(NC(=O)[C@@H](NC(=O)OCc2ccccc2)[C@@H](C)CC)cc1,8,5.5,4,8,2749,-9,1
COc1ccc(NC(C)=O)cc1NC(=O)CCn1c(=O)sc2ccccc21,5,3.3,16,7,12745,-15,1
Cc1ccc(NC(=O)CN(C)C(=O)C(C)N2CCN(Cc3ccccc3C)CC2)cc1 (stereo unspecified),nt,4.8,10,6,5516,-83,9
COc1ccc(Br)cc1CN1C(=O)NC2(CCCCCC2)C1=O,9,7.1,0,-5,3065,6,-9
CCOc1nonc1C(=N)/C(C(C)=O)=C(\C)O,-5,-13,5,6,3357,-9,-5
COc1ccc(-n2cc(-c3ccccc3)c3c(N4CCOCC4)ncnc32)cc1,-1,2.9,9,5,3861,8,-3
CC(=NO)C1CC(CC(=O)O)C1(C)C (stereo unspecified),nt,4.1,-1,6,nt,nt,-1
